TRPML1 agonist = activates the human TRPML1 channel. AID 624414. activation, % (concentration not given with the values). Q9GZU1. 410,000 compounds, 0.12% hits. TRPML1-expressing cells, Ca2+ dye fluorescence, FDSS; host cell line not named in the record; reference of the full effect not given here; in the data active = activation above about 50%; inconclusive = about 30% to 50%; inactive = below about 30%; note: 0% is about no effect; the text of the record puts the active cut at 80%
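Tet-induced TRPML1-DL cells, 1,500 per well, cultured overnight, were loaded with a no-wash Ca2+ dye for 45–90 min. Calcium fluorescence was recorded on the FDSS for 110 s after compound addition, before the EC80 agonist (4 uM 54-4) was added.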
CtBP-E1A inh = blocks the CtBP interaction with E1A; AlphaScreen GST-E1A/His-CtBP binding, 1536-well; stronger effect = lower value; control for the full effect not named in the record; activity change, % (test concentration not listed); 340,000 compounds, 0.49% hits; AID 651724; in the data active means activity change below about -65%; inconclusive means about -30% to -65%; inactive means above about -30%; note: % is set by controls: 0 for no effect and ±100 for the full control effect
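GST-E1A and His-tagged CtBP (125 nM each as 5X stock) were preincubated with pin-transferred compound for 2 h at 37 °C in the dark, then glutathione donor and nickel acceptor beads were added for 1 h before AlphaScreen reading.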
PINK1 expr mod = changes PINK1 expression. PINK1 immunofluorescence, high-content cytometry, 24 h. Potency, µM (highest dose often 76.6 µM), inactives show at the top dose activation (PINK1 increase), hits mostly activators. 410,000 compounds, 0.2% hits. AID 624263; active = well fitted activation curve with a large enough effect; inconclusive = small, poorly fitted or top-dose-only effect; inactive = flat fitted curve, though single readings scatter; cell line not stated here;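 note: potency is the fitted concentration of half-maximal effect; % of control where 0% means no effect; nearly all actives have a fitted effect of over 65% in size; a mitochondrial uncoupler was the plate control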
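Measures PINK1 amount and localization on or inside mitochondria by immunofluorescence. Stable cells get compounds at 5 concentrations for 24 hours before fixation and staining; CCCP controls included.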
TRPML1 inh = blocks the human TRPML1 channel. Q9GZU1. TRPML1-inducible cells, Ca2+ dye fluorescence, FDSS; stronger effect = lower value; inhibition of EC80 agonist-evoked calcium signal. activity change, negative = inhibition, % (concentration not given with the values). 390,000 compounds, 0.02% hits; in the data active means activity change below about -50%; inconclusive means about -30% to -50%; inactive means above about -30%;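 note: stimulus is agonist 54-4 at its EC80 concentration; % is set by controls: 0 for no effect and ±100 for the full control effect; the text of the record puts the active cut at -80%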
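Tet-induced TRPML1-DL cells loaded with Ca8 no-wash calcium dye were read kinetically on FDSS. Compound addition was followed by EC80 agonist 54-4 (4 uM final); inhibition was read over 110 s.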
Six1-Eya2 blk = inhibitors of human Six1/Eya2 interaction. Q15475+O00167. AlphaScreen GST-Six1/His-Eya2 binding, biochemical; stronger effect = lower value; control for the full effect not named in the record. activity change, % (concentration not given with the values). 360,000 compounds, 0.56% hits. AID 651725; in the data active = activity change below about -65%; inconclusive = about -30% to -65%; inactive = above about -30%; note: % is set by controls: 0 for no effect and ±100 for the full control effect
Target sequence (O00167 whole entry, looked up): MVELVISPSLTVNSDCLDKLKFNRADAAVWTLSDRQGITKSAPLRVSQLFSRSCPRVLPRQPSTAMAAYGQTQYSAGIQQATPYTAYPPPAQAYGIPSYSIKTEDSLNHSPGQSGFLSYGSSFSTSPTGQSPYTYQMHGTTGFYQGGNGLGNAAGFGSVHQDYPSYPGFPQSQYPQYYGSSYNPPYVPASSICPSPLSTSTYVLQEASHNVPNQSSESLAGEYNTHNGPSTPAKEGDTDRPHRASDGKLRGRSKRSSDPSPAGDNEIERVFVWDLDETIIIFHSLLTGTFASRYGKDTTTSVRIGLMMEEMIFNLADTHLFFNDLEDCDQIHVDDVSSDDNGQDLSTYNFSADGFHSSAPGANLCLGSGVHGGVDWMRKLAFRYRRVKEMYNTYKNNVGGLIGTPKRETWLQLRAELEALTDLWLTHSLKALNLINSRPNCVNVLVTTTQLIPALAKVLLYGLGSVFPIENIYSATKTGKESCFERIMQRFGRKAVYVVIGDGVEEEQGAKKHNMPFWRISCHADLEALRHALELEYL
Target sequence (Q15475 whole entry, looked up): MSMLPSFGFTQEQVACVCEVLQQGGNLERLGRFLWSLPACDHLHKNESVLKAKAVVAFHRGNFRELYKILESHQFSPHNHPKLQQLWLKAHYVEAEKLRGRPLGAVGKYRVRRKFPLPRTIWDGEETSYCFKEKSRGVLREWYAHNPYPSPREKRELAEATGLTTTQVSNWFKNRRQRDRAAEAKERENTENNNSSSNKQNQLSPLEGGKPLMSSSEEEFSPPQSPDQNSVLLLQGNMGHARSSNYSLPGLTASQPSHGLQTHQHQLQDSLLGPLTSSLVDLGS
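Homogeneous AlphaScreen proximity assay pairing GST-Six1 with His-tagged Eya2 (added as 5X mix: 250 nM and 500 nM) in 50 mM Tris pH 8.0, 300 mM NaCl, 1 mM TCEP. Glutathione donor and nickel acceptor beads; 1 h, 37 °C, dark.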
D2 agonist = agonists of human D2 dopamine receptor (beta-arrestin); activation, % (test concentration not listed); AID 624465; 360,000 compounds, 0.084% hits; DiscoveRx PathHunter D2 beta-arrestin, luminescence, 90 min; 100% = 57 uM dopamine signal; P14416; in the data active = activation above about 40%; inconclusive = about 15% to 40%; inactive = below about 15%; note: compound concentration not given in the record; the text of the record calls up to 30% inactive
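Agonist mode: compounds alone added to overnight-plated D2 PathHunter cells for 90 min at 37 C, with 57 uM final dopamine (EC100) defining full response. Beta-arrestin recruitment detected by chemiluminescent reagent, read after 1 h at ambient temperature.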
* = called active by the depositor; ? = inconclusive; . = no result given; & = joins results of further samples; [ ] = remark or other dose.

molecule,TRPML1 agonist,CtBP-E1A inh,PINK1 expr mod,TRPML1 inh,Six1-Eya2 blk,D2 agonist
Cc1ccc(Cl)cc1NS(=O)(=O)N1CCOCC1,0.2,-8.2,-0.4%,-14.4,2.3,-3.3
COc1ccc(NS(=O)(=O)c2cc(NC(=O)C3CC3)ccc2N2CCOCC2)cc1,0.3,-1.1,3.2%,22.5,2.9,-2.8
O=C(NCCN1CCC(n2c(=O)[nH]c3ccccc32)CC1)c1cccnc1,0.2,4.4,-0.6%,.,-0.2,.
O=S(=O)(/N=C(/Nc1cccc2ccccc12)c1ccccc1)c1cccs1,1.3,-2.3,1.0%,-26.2,1.1,-1.8
COc1cc(-c2nnn(CC(=O)Nc3ccc(OC(F)(F)F)cc3)n2)cc(OC)c1OC,1.9,.,12.2%,-20.9,.,.
Cc1cnc(CN2CCCC(C(=O)c3ccc4c5c(cccc35)CC4)C2)[nH]1 (stereo not drawn),-0.3,0.0,1.9%,19.6,-17.6,-3.5
O=C(CSc1nc2ccccc2c(=O)n1Cc1ccco1)N1CCN(c2ccccc2)CC1,2.6,-15.6,-0.9%,-4.1,-14.4,-2.9
COc1ccccc1-c1nnc(SCC(=O)N2CCOCC2)n1-c1ccccc1,1.1,-2.5,-1.1%,39.4,0.6,-1.1
C=C1c2cccc(OC)c2O[C@H](C(=O)OCC)[C@@H]1CCCCCC,-1.2&-0.2,8.6,?,-6.8,5.6,-1.4
COCCNC(=O)Cn1c(=O)c2cccn2c2ccc(F)cc21,0.4,.,0.0%,-29.0,.,.
O=c1cnnc(Nc2ccc(F)cc2)[nH]1,-1.2,3.3,2.3%,-0.6,-0.9,3.5
Cc1c(CCC(=O)N[C@@H](C)C(=O)O)c(=O)oc2cc3oc4c(c3cc12)CCCC4,1.4,.,1.0%,17.2,-6.7,-0.1
CSc1ccccc1NC(=O)c1ccncc1,0.4,-5.7,5.1%[38.3 µM],-5.6,-1.8,-1.2
O=C(NC(c1ccccc1)C(Cl)Cl)c1ccccc1 (stereo not drawn),0.1,-1.5,3.1%,1.2,2.6,-2.1
Cn1nc(C2CC2)cc1NC(=O)C1(C)CCN1C(=O)CC(c1ccccc1)c1ccccc1 (stereo not drawn),0.4,4.5,0.0%,23.5,-6.7,-6.1
O=C(Nc1ccc(OC(F)F)c(Cl)c1)C(c1ccccc1)c1ccccc1,2.4,-0.1,?,-7.3,15.4,-2.3
COc1ccc(S(=O)(=O)N2CCC(N3CCN(c4ccccc4OC)CC3)CC2)cc1,1.4,-1.4,-1.3%,7.6,6.7,1.1
Cc1ccn2c(=O)nc(SCC(=O)NCCc3ccccc3)nc2c1,0.3,9.0,-2.8%,10.3,-2.0,-0.1
O=C(C[C@H]1C[C@H](C(=O)N2CCOCC2)[C@@]2(CCC3CCCC3)c3[nH]c4cc(-c5ccco5)ccc4c3CCN2C1=O)NCC12CC3CC(CC(C3)C1)C2,-0.5,-9.9,0.6%,-9.3,-15.9,-4.0
Cc1nn2c(-c3ccc(Cl)cc3)ccnc2c1-c1ccccc1,-0.2,-3.2,?,3.1,-1.1,-0.2
COc1cc(Br)cc(CN2CCN(C/C=C/c3ccccc3)CC2)c1O,2.0,-3.4,3.2%[38.3 µM],13.8,-28.6,-1.4
Cc1cc(OCCCC(=O)Nc2nnc(C3CC3)s2)ccc1Cl,-0.4,21.5,-0.2%,-26.6,12.4,-0.5
C/C(CC(=O)Nc1cc(Cl)ccc1C)=N\NC(N)=O,0.2,3.2,-0.5%,-4.0,-3.8,-1.2
Cc1ccc(C(=O)NC(=S)Nc2cccc(NC(=O)c3ccccc3Cl)c2)cc1[N+](=O)[O-],0.2,-11.1,0.0%,27.1,-5.0,-7.0
O=C(COC(=O)[C@@H]1CC(O)CN1S(=O)(=O)c1ccc(Cl)cc1)NC(=O)NCc1ccccc1 (stereo partly drawn),0.5,-3.2,0.8%,2.7,7.3,-0.4
O=C(c1cccc(C(F)(F)F)c1)C1CCCN(Cc2cccc(OCCO)c2)C1 (stereo not drawn),-0.7&-0.1,-1.9,2.2%&-0.9%,-0.5,-10.1&1.1,0.7
COc1ccc2c3n([n+]([O-])c2c1)CCN=C3c1ccc(C)cc1,-0.4,-2.1,0.3%,-8.3,-4.0,4.0
C/C(=N\NC(=O)c1cc(C(C)C)[nH]n1)c1ccco1,0.0,2.4,0.3%,-13.8,2.3,-2.5
CCC(C)[C@H](NC(=O)N1CCC(C)CC1)C(=O)OC (stereo partly drawn),0.0,7.1,-0.7%,14.9,6.1,-2.7
CN(C)c1ccc(NC(=S)NC23CC4CC(CC(C4)C2)C3)cc1,1.0,?,10.4%,-13.1,-28.8,1.8
O=C(NC(Cc1ccccc1)C(=O)O)/C(=C\c1ccccc1F)NC(=O)c1ccccc1 (stereo not drawn),0.1,15.4,-2.2%,-0.1,7.2,-2.5
COc1cc2c(-c3cc(F)cc(F)c3)c(-c3ccsc3)oc(=O)c2cc1OC,1.2,-1.5,3.6%,-13.5,3.0,-1.3
O=C(CSc1nc2c(oc3ccccc32)c(=O)n1-c1ccccc1)Nc1ccc(F)c(Cl)c1,0.0,.,1.4%,-14.7,.,.
O=C(Nc1ccccc1F)C1CC1c1ccccc1 (stereo not drawn),2.1,10.2,-0.8%,-6.3,14.3,-1.2
Cc1cc(OC(=O)c2ccccc2F)c([N+](=O)[O-])c(=O)[nH]1,0.8,.,-1.6%,-6.3,6.5,0.0
CCNC(=S)Nc1ccc(N(c2ccccc2)C(C)C)cc1,2.4,-13.7,5.0%[38.3 µM],14.4,-12.8,4.7
Nc1ccc(NC(=O)CCN2CCOCC2)cc1,-0.3,8.1,-0.5%,-1.6,6.1,-0.6
CC(NC(=O)CN(c1ccccc1F)S(C)(=O)=O)c1ccccc1 (stereo not drawn),-0.1,2.8,1.1%,-8.6,9.1,0.1
CC(C)NCCCCOc1ccc(Br)cc1Cl,0.5,.,7.2%,4.7,0.1,-7.1
CC(C)CCNC(=O)CCCOc1ccccc1,-0.7,2.1,1.0%,-4.9,-0.6,-2.9
COCCNC(=O)C(c1cccs1)N(C(=O)Cn1nnc2ccccc21)c1cccc(C)c1 (stereo not drawn),-0.8,7.9,0.4%,-3.5,5.6,-1.0
CC(=O)[C@H]1[C@H](C#N)C[C@H]2[C@@H]3CC=C4C[C@@H](O)CC[C@]4(C)[C@H]3CC[C@@]21C,-0.3&-0.9,3.2,-0.4%&-0.6%,5.7,-1.7,1.6
CN1C(C(=O)Nc2ccc(OC(F)(F)F)cc2)=CC(c2ccco2)=NS1(=O)=O,2.1,-6.5,-0.8%,1.2,-7.8,4.2
CCSc1nc2ccccc2n1S(=O)(=O)c1ccccc1,-0.4,7.7,-0.3%,-13.8,6.0,-1.5
COc1ccc(N2C(=O)CC(NC34CC5CC(CC(C5)C3)C4)C2=O)c(OC)c1 (stereo not drawn),0.3,3.6,-2.3%[38.3 µM],-10.9,-0.7,2.6
CCCCNS(=O)(=O)c1ccc2nc(SCC(=O)c3ccc(C#N)cc3)[nH]c2c1,-0.3,5.3,-2.0%,-2.1,-0.7,-5.1
Cc1ccc(SCCN)cc1C,-0.8,2.5,2.1%,-0.5,-0.8,2.2
CN1CCN(C(=S)Nc2cc([N+](=O)[O-])ccc2Cl)CC1,-0.5,1.6,0.1%,41.0,6.8,-4.9
COc1cc(NS(=O)(=O)c2cccc3nsnc23)cc(OC)c1,0.9,-2.0,11.9%[38.3 µM],2.0,-1.5,-2.6
CC(=O)Nc1ccc(NC(=O)C2Cc3c(-c4cccc(C(C)=O)c4)ccnc3O2)cc1 (stereo not drawn),0.1,-8.9,2.1%,-9.9,-2.8,-4.5
COc1cccc(C=C(C#N)C(=O)c2ccccc2)c1,-0.2,7.8,-0.4%,.,-0.1,-4.7
Cn1cc(Br)c(C(=O)NC(=S)Nc2ccc(S(N)(=O)=O)cc2)n1,-0.5,.,1.7%,5.9,5.6,-2.1
O=C(COC(=O)c1cccc(Br)c1)NCCc1ccc(F)cc1,3.3,-18.8,2.4%,-2.8,4.2,-1.6
Cc1cccc(NC(=O)CSc2nc3c(oc4ccccc43)c(=O)n2-c2ccccc2)c1,2.9,-4.6,1.9%,-12.6,2.8,-0.2
COc1ccc(/C=C2/SC(=S)NC2=O)cc1OCc1ccccc1,0.6,-1.1,0.3%,0.8,-18.0,-1.9
CC(C)[C@H](NS(=O)(=O)c1ccc2c(c1)OCCO2)C(=O)OCC(=O)Nc1ccccc1,1.8,6.3,2.8%,-8.8,2.9,5.7
CNC(=O)NC1CCCCc2sccc21 (stereo not drawn),0.0,-22.4,0.9%,3.9,-7.7,-1.7
Cc1ccccc1C1NC(c2ccccc2C)C(C)C(=O)C1C (stereo not drawn),3.1,.,12.0%,20.2,-0.3,-3.9
O=C(CSc1nnc(-c2ccccc2F)o1)NC(=O)Cc1ccccc1,0.7,5.4,2.5%,-1.6,0.0,-1.8
O=C(C1CCCN(S(=O)(=O)c2cccnc2)C1)N1CCN(c2ccccn2)CC1 (stereo not drawn),0.7,1.1,-0.5%,-13.5,1.5,-1.5

(more compounds)
molecule,TRPML1 agonist,CtBP-E1A inh,PINK1 expr mod,TRPML1 inh,Six1-Eya2 blk,D2 agonist
COc1cc(/C=N/NC(=O)CSc2nc3ccccc3n2C)cc(OC)c1OC,1.9,1.0,8.8%,-6.9,3.3,-0.6
CCN(CC)S(=O)(=O)N1CCC(C(=O)NCC2COc3ccccc3O2)CC1 (stereo not drawn),-0.1,4.5,-2.8%[38.3 µM],-4.1,4.5,-0.9
COc1cc(Cn2c3ccc(NC(=O)NCc4ccc(F)cc4)cc3c(=O)n2C)ccc1F,-0.8,-5.5,3.9%,.,3.4,14.1
Cc1ccc(C(=O)N/C(=C\c2ccc(-c3cccc([N+](=O)[O-])c3)o2)C(=O)NCCCN(C)C)cc1,-0.3,-6.8,-1.1%,7.0,-10.9,13.8

Compound activity deposited in PubChem BioAssay by National Center for Advancing Translational Sciences (NCATS).
